Screens: PubChem BioAssay, National Center for Advancing Translational Sciences (NCATS)
GLA inh pH 4.5 – inhibitors of human alpha-galactosidase A at pH 4.5; purified enzyme, 4-MU-alpha-Gal fluorescence, pH 4.5; 230,000 tested, under 10 active; activity change, negative = inhibition, % at 105 µM; P06280; inconclusive = small, poorly fitted or top-dose-only inhibition, or a rising curve; inactive = flat fitted curve, though single readings scatter; no compound was filed as active;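 further: 0% = full activity with enzyme and -100% = basal without enzyme; dose as in the result columns while the protocol names 77 µM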
miR-21 reporter – miR-21 reporter, rising signal; Potency, µM (highest dose often 38.3 µM), without a hit: top-dose reporter change, positive = more light; HeLa miR-21 FLuc reporter, luciferase, 48 h; 340,000 tested, under 10 active; active = well fitted rising curve with a large enough effect; inconclusive = small, poorly fitted or top-dose-only effect; inactive = no such curve, though single readings can be large or run the other way;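 further: % of control where 0% means no effect; miR-21 action dims this reporter so a rising signal means less miR-21 action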
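Luminescence from a firefly luciferase reporter carrying a miR-21 binding site downstream, stably expressed under a CMV promoter in HeLa cells that make miR-21 endogenously, reports miRNA modulation after 48 h compound exposure up to approximately 40uM final.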
Rango complex inh – Rango-importin beta binding inhibition; Q14974; Rango CFP/YFP FRET sensor + importin beta, 45 min; Potency, µM (series often up to 92.2 µM), for inactives: at the highest dose inhibition of complex formation; actives 0.031% (n = 340,000); AID 540263; active = rising FRET ratio curve, often small or poorly fitted; inconclusive = mostly compound fluorescence or quenching in the first reads; inactive = flat curves in all reads;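 further: potency means the concentration at half of the fitted maximal effect; 0% = DMSO wells and 100% = buffer wells lacking importin beta; nearly all actives have a fitted effect of over 15% in size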
Target sequence (Q14974 whole entry, looked up): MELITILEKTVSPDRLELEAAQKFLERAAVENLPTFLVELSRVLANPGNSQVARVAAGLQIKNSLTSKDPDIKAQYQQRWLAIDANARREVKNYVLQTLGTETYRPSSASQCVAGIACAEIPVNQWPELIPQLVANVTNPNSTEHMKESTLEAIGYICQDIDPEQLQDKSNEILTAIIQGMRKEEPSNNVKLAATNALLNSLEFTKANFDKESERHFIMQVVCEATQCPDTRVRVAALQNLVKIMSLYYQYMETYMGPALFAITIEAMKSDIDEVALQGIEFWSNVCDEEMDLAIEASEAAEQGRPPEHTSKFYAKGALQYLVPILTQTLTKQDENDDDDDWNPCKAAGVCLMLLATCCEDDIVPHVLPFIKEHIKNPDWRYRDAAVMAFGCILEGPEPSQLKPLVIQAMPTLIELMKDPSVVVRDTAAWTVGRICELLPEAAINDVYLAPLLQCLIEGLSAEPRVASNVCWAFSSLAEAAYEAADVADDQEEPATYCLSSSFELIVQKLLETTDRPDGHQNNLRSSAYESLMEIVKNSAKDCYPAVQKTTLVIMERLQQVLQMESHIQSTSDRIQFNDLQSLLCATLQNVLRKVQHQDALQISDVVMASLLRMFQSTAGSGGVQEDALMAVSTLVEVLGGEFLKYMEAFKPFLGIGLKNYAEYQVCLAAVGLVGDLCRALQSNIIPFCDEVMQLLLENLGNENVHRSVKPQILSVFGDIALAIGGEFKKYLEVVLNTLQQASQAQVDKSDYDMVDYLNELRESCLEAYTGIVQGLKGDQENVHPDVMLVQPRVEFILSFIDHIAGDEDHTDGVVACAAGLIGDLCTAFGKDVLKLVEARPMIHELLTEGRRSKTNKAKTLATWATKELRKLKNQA
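FRET biosensor (snurportin 1 IBB flanked by EYFP and cerulean), 50 nM, with compound 5 min, then 0.125 microM importin beta in PBS, 1 mM DTT, 0.02% Tween-20, 0.1% BSA. CFP/YFP ratio read after 45 min at room temperature; pre-read flags interference.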
Rango dissoc inh – inhibitors of RanGTP-induced Rango-importin beta complex dissociation; O95149+P62826; Biochemical FRET Rango-importin beta, RanGTP-induced dissociation; Potency, µM (titrated, usually from 46.1 µM), for the others: top-dose activity change, negative = inhibition; actives 0.071% (n = 340,000); active means falling FRET ratio curve, often poorly fitted, with flat reads before Ran was added; inconclusive means other falling curves, or compound fluorescence or quenching; inactive means flat or rising ratio curve;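 further: potency means the concentration at half of the fitted maximal effect; % of control where 0% means no effect; nearly all actives have a fitted effect of over 45% in size; -100% = wells without RanGTP and RCC1; the record marks most hits as doubtful in a second field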
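Compounds sat 5 min at room temperature with 0.1 uM Rango biosensor plus 0.25 uM importin beta, then FRET pre-read. RanGTP-RCC1 (0.6 uM Ran, 2mM GTP, 0.2 uM RCC1) added for 45 min, and the CFP/YFP post-read measured blocked complex dissociation.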
Starred values were filed as active, the others as inactive; ? = inconclusive; nt = not tested or not shown; & = joins results of further samples.

SMILES	GLA inh pH 4.5	miR-21 reporter	Rango complex inh	Rango dissoc inh
Cc1cc(F)ccc1NC(=O)c1cc(S(=O)(=O)N2CCOCC2)cn1C	nt	2%	0.9%	-3%
O=C(NCCC1=CCCCC1)c1ccc(F)c(S(=O)(=O)N2CCOCC2)c1	5	-9%	1.8%	-6%
CC(Cc1ccccc1)C(=O)NCCO (stereo not drawn)	1&0	-13%	-1.0%	-12%
Cc1ccc(S(=O)(=O)N2CCN(C(=O)C3Cc4ccccc4CN3C(=O)c3ccco3)CC2)cc1 (stereo not drawn)	-6	0%	-2.3%	6%
N#Cc1ccc(S(=O)(=O)NCC(=O)OCC(=O)N2CCCC2=O)cc1	nt	nt	1.7%	1%
COc1ccc2ccc(=O)oc2c1CC(O)C(C)(C)O (stereo not drawn)	2	6%	-0.4%	0%
CCn1c(SCC(=O)NCC2CCCO2)nnc1-c1ccc(Cl)cc1 (stereo not drawn)	-5	3%	1.1%	1%
O=C1O[C@H](CO)[C@@H](O)[C@H](O)[C@H]1O	nt	nt	-1.6%	5%
CN(C)c1ccc(/C=C(\NC(=O)c2ccccc2)C(=O)NCCN2CCOCC2)cc1	nt	-1%	-0.4%	-4%
C[N+](C)(C)C[C@H](O)CC(=O)[O-]	nt	nt	4.8%	-9%

One compound at a time (already shown). Order of values: GLA inh pH 4.5, miR-21 reporter, Rango complex inh, Rango dissoc inh
CCn1c(SCC(=O)NCC2CCCO2)nnc1-c1ccc(Cl)cc1 (stereo not drawn) in the list: -5, 3%, 1.1%, 1%
C[N+](C)(C)C[C@H](O)CC(=O)[O-] in the list: nt, nt, 4.8%, -9%
Cc1cc(F)ccc1NC(=O)c1cc(S(=O)(=O)N2CCOCC2)cn1C in the list: nt, 2%, 0.9%, -3%

The listing continues:
SMILES	GLA inh pH 4.5	miR-21 reporter	Rango complex inh	Rango dissoc inh
CN(C)CCNc1nc2sc3c(c2c(=O)n1CCc1ccccc1)CCCCC3	-8	?	8.6%	-10%
Nc1ccc(C(=O)OCC(=O)NC2CCS(=O)(=O)C2)cc1[N+](=O)[O-] (stereo not drawn)	0	4%	0.8%	1%
CC(=O)N(C)c1nnc(-c2ccccn2)s1	-4	-24%	-0.9%	-6%
CCN(CC)c1ccc(/C=N/N2CCN(Cc3ccc(C)cc3C)CC2)c(O)c1	5	-6%	-4.1%	-1%
NC(=O)c1sc(-c2ccsc2)cc1NS(=O)(=O)c1ccc(C(F)(F)F)cc1	-5	13%	4.9%	-3%
COC(=O)[C@@H]1C[C@H]2CC[C@H](O)C[C@H]2N1Cc1ccc(Cl)cc1	1&2	3%	-4.4%	-2%
CC(C)(C)NC(=O)CC(c1ccccc1)c1ccccc1O (stereo not drawn)	-4	0%	1.4%	17%
CCn1nc(C)cc1C(=O)Sc1cccc(Cl)c1	0	0%	?	11%
O=C(CCCn1c(=S)[nH]c2cc3c(cc2c1=O)OCO3)N1CCN(c2ccc(F)cc2)CC1	-3	12%	0.3%	3%
CC1CCCCC1NS(=O)(=O)CCNC(=O)c1ccccc1 (stereo not drawn)	nt	nt	1.4%	42%
CC12CCC(C(=O)N(CC(O)CN3CCCCC3)C1=O)C2(C)C (stereo not drawn)	3	0%	1.6%	-6%
Cc1cccc(NC(=O)CSc2ccc(-c3ccco3)nn2)c1	0	-8%	3.8%	4%
Cn1cc(Br)c(-c2cccc(NC(=O)CCC(=O)O)c2)n1	-4	0%	-0.4%	7%
O=C(Nc1cccnc1)c1cc2cc(Br)ccc2oc1=O	-12	-2%	-0.1%	3%
CC(=O)/C=C\c1ccccc1OC(=O)c1cc2ccccc2oc1=O	nt	-7%	2.3%	36%
COc1ccc(NC(=O)c2cccc(Cn3cc(Br)cn3)c2)cn1	-8	6%	1.4%	-7%
O=C(Nc1ccon1)c1ccccc1Cl	3	-18%	2.7%	2%
COC(=O)[C@H]1C[C@@H]1[C@H](NC(=O)OCc1ccccc1)c1ccccc1	-1&-2	-5%	0.5%	-6%
CCCCNC(=O)C(c1ccc(OCC(=O)OC)c(C(=O)OC)c1)N(CCc1c[nH]c2ccccc12)C(=O)CCCCCN1C(=O)NC(c2ccc(-c3ccccc3)cc2)C(C(=O)OCc2ccccc2)=C1C (stereo not drawn)	2	-6%	nt	nt
Fc1c(F)c(-n2nnc3ccccc32)c(F)c(F)c1Cl	nt	-8%	-0.6%	1%
Cc1cc(C)cc(-c2nnc(SCC(=O)c3c(N)n(C4CC4)c(=O)[nH]c3=O)o2)c1	nt	nt	-3.3%	8%
COc1ccc([N+](=O)[O-])cc1NC(=O)CSc1nc(C)cc(C)n1	-2	-10%	-2.9%	1%
Cc1ccc2nc(-c3ccccc3)c(CN3CCN(c4ccccc4F)CC3)n2c1	-1	-4%	-1.0%	-12%
CCN(CC(=O)Nc1ccc(OC(F)F)cc1)C1CCCCC1	-14	-5%	-2.4%	14%
CC[C@@H](C(=O)[C@@H](C)[C@@H](O)[C@H](C)[C@@H]1O[C@@H]([C@@H](CC)C(=O)O)CC[C@@H]1C)[C@H]1O[C@]2(C=C[C@@H](O)[C@]3(CC[C@@](C)([C@H]4CC[C@](O)(CC)[C@H](C)O4)O3)O2)[C@H](C)C[C@@H]1C	nt	nt	3.0%	6%
Cc1nn(CC(=O)Nc2ccc(N3CCOCC3)cc2)c(C)c1[N+](=O)[O-]	nt	nt	1.2%	-5%
O=C(NCc1ccc(Cl)cc1)C(=O)NCC1OCCN1C(=O)c1ccc(Cl)cc1 (stereo not drawn)	12	10%	-1.4%	22%
Cc1ccc(C(=O)N(CN2CCCC2=O)c2ccccc2)cc1	-1	-2%	?	10%
Cc1oc(-c2cc(Cl)cc(Cl)c2)cc1C(=O)NCCc1ccccc1	2	-9%	-2.6%	13%
COC(=O)c1[nH]c2ccc(Cl)cc2c1NC(=O)CCN1CCOCC1	3	-5%	0.1%	-3%
O=C(O)C1CCN(C(=O)COc2ccc3c(c2)oc(=O)c2ccccc23)CC1	nt	1%	0.3%	2%
CCOCCCNC(=O)c1ccc2c(c1)N=C(CC)c1cc(Br)ccc1S2	-4	24%	-0.1%	0%
C[C@]12CCC(=O)C=C1CC[C@@H]1[C@@H]2[C@@H](O)C[C@@]2(C)[C@H]1CC[C@]2(O)C(=O)CO	-7	-31%	3.5%&2.0%	3%&10%
COCCCN1C(=O)c2ccc(C(=O)OCC(=O)NCc3ccccc3OC)cc2C1=O	nt	1%	2.4%	1%
COC(=O)/C(C#N)=C/c1c(Oc2cccc(C)c2)nc2ccccn2c1=O	1	4%	?	-16%
CCOC(=O)c1c(-c2ccccc2)csc1NC(=O)C1CCCO1 (stereo not drawn)	-9	-3%	-3.0%	-1%
CCOC(=O)c1c(NC(=O)CSc2nnnn2C)sc(CC)c1C	0	-10%	0.6%	-9%
CC(=O)c1c(C)[nH]c(C(=O)OCC(=O)Nc2cccc(S(=O)(=O)N3CCCC3)c2)c1C	8	9%	-3.1%	0%
COc1ccc(/C=N/NC(=O)C(=O)N2CCCC2)cc1OC	4	-9%	-3.7%	1%
COc1ccc(NC(=O)Nc2cccc3c2O[C@H](CN(C)S(=O)(=O)c2ccc(F)cc2)[C@@H](C)CN([C@H](C)CO)C3=O)cc1	nt	nt	-1.3%	-28%
CCNC(=S)N/N=C(\C)c1cccc([N+](=O)[O-])c1	-3	-13%	0.9%	-7%
CCCCCCCCC(NC(=O)c1ccc(C#N)cc1)C(=O)NCCC (stereo not drawn)	nt	nt	-2.4%	1%
NC(=S)Nc1cccc2[nH]ccc12	4	1%	0.0%	-11%
O=C1c2ccccc2C(Nc2ccc3c(c2)OCO3)N1Cc1ccc2c(c1)OCO2 (stereo not drawn)	-7	-38%	-1.7%	-4%
O=C(CC1(O)C(=O)Nc2ccccc21)c1ccc(-n2cnnn2)cc1 (stereo not drawn)	2	-24%	1.5%	-9%
COCC(CN1CCN(C2=NS(=O)(=O)c3ccccc32)CC1)OC(=O)c1ccc(OC)cc1 (stereo not drawn)	nt	3%	4.2%	11%
CSc1ncccc1C(=O)NCC(c1ccco1)N1CCCCC1 (stereo not drawn)	nt	nt	1.2%	-12%
CCC(C)(C)NC(=O)CN(Cc1ccc2c(c1)OCO2)C(=O)CCC(=O)Nc1ccccn1	-2	-3%	1.6%	22%
CC(=O)Nc1ccc(S(=O)(=O)N2CCCC3CCCCC32)cc1 (stereo not drawn)	nt	nt	3.0%	5%
CCC(=O)OCOc1ccc(/C=C2/CCC(CN(C)C)C2=O)cc1 (stereo not drawn)	nt	nt	7.1%	-1%
New compounds follow:
SMILES	GLA inh pH 4.5	miR-21 reporter	Rango complex inh	Rango dissoc inh
COc1cc(CCC(=O)OCC(=O)Nc2ccc(F)cc2F)cc(OC)c1OC	nt	0%	1.4%	11%
C=CCn1c(C)nnc1SCC(=O)Nc1ccccc1C(=O)NC1CC1	nt	nt	-0.9%	13%
CC(=O)c1ccc(N2CCN(C(=O)/C=C/c3ccc4ccccc4n3)CC2)cc1	-1	-16%	-1.6%	-5%
CCCn1c(C(O)c2cccc(OC)c2)nc2ccccc21 (stereo not drawn)	nt	-6%	0.5%	-10%
C/C(=N\NC(=O)CCc1ccc(S(=O)(=O)N2CCOCC2)cc1)c1ccccc1Cl	7	3%	4.6%	-1%
COc1ccccc1NS(=O)(=O)c1ccc(C(=O)Nc2ncccc2O)cc1	nt	nt	2.9%	-2%
O=C1Nc2cc(Cl)c(Cl)cc2N(O)N1c1ccc(Cl)cc1	7	-6%	2.6%	20%
CCOc1ccc(N2C(=O)C3ON(c4ccccc4)C(c4cccs4)C3C2=O)cc1 (stereo not drawn)	-1	6%	0.1%	-12%
O=S(=O)(NCCC1CC1(Cl)Cl)c1ccc(Cl)cc1 (stereo not drawn)	5	-5%	-1.8%	-16%
COc1ccc(N(CC(=O)Nc2nc3ccc(C)cc3s2)S(=O)(=O)c2c(C)nn(C)c2C)cc1	3	20%	-1.0%	0%
CCCCn1c(N)c(N(CCOC)C(=O)c2cc(=O)[nH]c3ccccc23)c(=O)[nH]c1=O	nt	nt	0.6%	-2%
O=C(Nc1ccc(N2CCOCC2)cc1)C1CCN(C(=O)OCc2ccccc2)CC1	0	-2%	6.4%	13%
COc1ccccc1NC(=O)Nc1nc(CC(=O)Nc2cc(F)ccc2F)cs1	nt	nt	?	-1%
COc1cccc2c3c(c(=O)[nH]c12)CCC(C)(C)O3	0	-29%	1.0%	1%
COc1ccc(CCNC(=O)C2=COCCO2)cc1	2	-33%	-1.6%	18%
COc1ccc(CN2C(=O)CSC2c2ccccn2)cc1 (stereo not drawn)	4	0%	0.2%	-3%
Cc1ccc2c(c1)c1c3n2CCN(C=O)C3CCC1 (stereo not drawn)	nt	-7%	-0.5%	-1%
COc1ccc([N+](=O)[O-])cc1N/C(=N/S(=O)(=O)c1ccccc1)c1ccccc1	-1	-24%	6.3%	-2%
Cc1ccc(OCc2nnc(SCC(=O)CC(=O)Nc3ccccc3)o2)cc1	-15	-8%	0.7%	-2%
Nc1c(C=C2C=CC(=O)C=C2)c(=O)nc2sc(CC(=O)N3CCCC3)nn12	nt	3%	?	?
C=CCNC(=S)N1CCN(c2ccc([N+](=O)[O-])cc2)CC1	-2	7%	-1.2%	-4%
Cc1c(/C=N/n2cnnc2)c2ccccc2n1C	0	0%	2.3%	-2%
Nc1ccc(C(=O)O)c(O)c1	-8&-2&2&-1	1%&-8%&0%	-3.7%&0.1%&-5.4%	0%&3%&10%
O=S(=O)(NCC1CC1)c1ccc(F)c(Cl)c1	nt	-6%	7.1%	15%
O=C(CC1CCCC1)NCCS(=O)(=O)N1CCN(c2ccc(F)cc2)CC1	nt	nt	-4.1%	14%
CCCCCCCCNC1=CC(=O)CC(C)(C)C1	-29	-3%	0.1%	?
COc1ccc(C(CNC(=O)COc2ccccc2OC)N(C)C)cc1OC (stereo not drawn)	-18	-5%	-4.3%	-8%

Some of the compounds tested, so the mix of outcomes need not match the whole.
